Source: PubChem (National Center for Advancing Translational Sciences (NCATS))
VDR inh – Inhibitors of the vitamin D receptor (VDR): qHTS. Vitamin D3 receptor (Homo sapiens), P11473. VDR-SRC2-3 peptide fluorescence polarization, 2 h. Potency, µM, inactives show max response, negative = inhibition, most hits filed as inhibitors. hit rate 0.93% among 400,000; active = well fitted inhibition curve with a large enough effect; inconclusive = small, poorly fitted or top-dose-only effect, or another doubt; inactive = no such curve, though single readings can be large or run the other way; note: series mostly up to about 120 µM
Target sequence (P11473 whole entry, looked up): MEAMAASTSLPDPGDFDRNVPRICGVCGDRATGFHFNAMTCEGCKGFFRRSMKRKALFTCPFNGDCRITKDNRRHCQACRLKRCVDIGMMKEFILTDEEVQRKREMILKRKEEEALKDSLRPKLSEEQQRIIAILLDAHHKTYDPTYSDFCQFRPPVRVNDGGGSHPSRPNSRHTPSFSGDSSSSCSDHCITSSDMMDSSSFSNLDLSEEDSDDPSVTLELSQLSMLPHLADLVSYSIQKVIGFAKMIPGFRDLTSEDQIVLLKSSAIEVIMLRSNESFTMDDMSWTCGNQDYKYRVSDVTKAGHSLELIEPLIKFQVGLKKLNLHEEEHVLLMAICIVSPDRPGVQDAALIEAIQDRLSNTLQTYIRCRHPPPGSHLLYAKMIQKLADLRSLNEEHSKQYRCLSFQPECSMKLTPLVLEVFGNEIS
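Fluorescence polarization assay of small-molecule disruption of VDR binding to coregulator peptide SRC2-3. Compounds and controls pin-transferred, then read after 2 h incubation at ambient room temperature.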
* = called active by the depositor; ? = inconclusive; & = joins results of further samples; [ ] = dose if it differs, or a comment. % is set by controls: 0 for no effect and ±100 for the full control effect; potency is the fitted concentration of half-maximal effect. Some of the compounds tested; the hit share may differ from the screen's.

structure	VDR inh
C#CCOCCOCCOCCNc1nc(N2CCOCC2)nc(N2CCN(C(=O)[C@H]([C@@H](C)CC)n3cc([C@@H](N)CO)nn3)CC2)n1	-10%
O=C(NCCc1csc(-c2cccnc2)n1)c1cccs1	3%
Cc1ccc(C)c(C(=O)CN2C(=O)NC3(CCCCCC3)C2=O)c1	-21%
CCOC(=O)c1c(-c2ccc3ccccc3c2)csc1NC(=O)CCCC(=O)O	-24%
CCC(=O)Nc1ccc(C(=O)CSc2nnc(-c3cccnc3)o2)cc1	-1%
COC(OC)C12c3ccccc3C(c3ccccc31)C1C(=O)N(c3cccnc3)C(=O)C12 (configuration not stated)	5%
COc1cccc(C(=O)O/N=C(\N)c2ccncc2)c1OC	-1%
C/C(CC(=O)NCc1ccc(Cl)cc1)=N\NC(=O)COc1ccc(C)cc1Br	11%
Cc1ccc(NC(=O)COC(=O)c2ccc3c(c2)C(=O)N(CCc2ccccc2)C3=O)c(C)c1	-9%
CCOC(=O)c1nn(-c2ccccc2)c(=O)c(C#N)c1C	-11%
CCN(CC(=O)NCCc1ccccc1)S(=O)(=O)c1ccccc1	11%
Cn1c(C(=O)N2CCc3ccccc3C2)cc2oc3ccccc3c21	?
Cc1csc(NC(=O)CSc2nncs2)n1	9%
COc1ccc(C(=O)NC2=NCCS2)c(OC)c1	-7%
Cc1ccc(-c2csc(NC(=O)CSc3nc4ccccc4c(=O)n3CCCN(C)C)n2)cc1	-15%
CCOC(=O)/C=c1\s/c(=C\c2ccc(C(=O)OC)cc2)c(=O)n1CC(=O)Nc1ccccc1	-10%
O=C(NC(Nc1ncccn1)C(=O)c1ccccc1)c1ccccc1 (configuration not stated)	4%
COc1ccc(/C=C(/NC(=O)c2ccc([N+](=O)[O-])cc2)C(=O)NC(C)(C)C)cc1	-3%
CCn1c2c(c(=N)c3c1CCC3)CCC2	-5%
Cc1ccc(CN2CCC(CNC(=O)C3CCCN(c4ncnc5c4nc4n5CCCCC4)C3)CC2)cc1 (configuration not stated)	-7%
Cc1[nH]n(CCC#N)c(=O)c1CC(=O)N1CCN(c2ccccc2)CC1	6%
O=S(=O)(Nc1ccccc1F)c1ccc(Cl)nc1	7%
Cc1ccc(NCc2nnc(SCC(=O)Nc3nnc(C)s3)n2C)cc1	15%
COc1ccc(N2CCN(S(=O)(=O)CCNC(=O)c3cccs3)CC2)cc1	35%[activator]
CN(CC(=O)NCCc1ccc(S(N)(=O)=O)cc1)CC(=O)Nc1ccc(F)c(F)c1F	4%
CSc1nc(C(=O)N2CCCC(C(=O)c3ccc(Cl)cc3)C2)cs1 (configuration not stated)	11%
CCOC(=O)c1c(NC(=O)c2ccc(Br)o2)sc2c1CCCC2	-2%
COc1ccc(/C=C2/C(=O)N(Cc3ccccc3)N=C2C)cc1	?
Cc1cc(C)nc(N/N=C/c2ccc(Cl)cc2)n1	-3%
O=C(CN1C(=O)C2CC=CCC2C1=O)Nc1nnc(SCc2ccc(F)cc2)s1 (configuration not stated)	-2%
COc1ccc(NS(=O)(=O)c2ccc(C)c(C(=O)N(C)CC(=O)Nc3cccc(OC)c3)c2)cc1	-7%
N#Cc1cc(C(=O)c2cc(Br)ccc2O)cn(Cc2ccccc2)c1=O	1%
COCCN(CCOC)c1nc(N)c2c(N)nc3c(c2c1C#N)CC(=O)N3Cc1ccc(Cl)cc1	?
O=[N+]([O-])c1ccc(Oc2ncccn2)cc1	12%
CCCN1C(=O)/C(=C/c2ccc(OCC(=O)OCC)cc2)NC1=S	-4%
CC(=O)c1cnc2nc(SCc3ccc(C)cc3)nn2c1C	?
c1ccc2c(c1)ccc1nnc(SCc3ccc4c(c3)OCO4)n12	10%
CCN1CCC(N(Cc2ccc3c(c2)OCO3)C(=O)Nc2cccc(C)c2C)CC1	9%
CCOC(=O)C1CCN(Cc2cnc(Oc3ccc(Cl)cc3C)s2)CC1	8%
CCCSc1nc(N)nc(-c2cccs2)c1C#N	-10%
Cc1ccc2oc(NC(=O)N3CCOCC3)cc(=O)c2c1	-6%
O=C(Nc1c(C(=O)O)[nH]c2ccccc12)c1cccc(C(F)(F)F)c1	-22%
CC(=O)c1ccc(NC(=O)CC2Nc3cc(C)c(C)cc3NC2=O)cc1 (configuration not stated)	-29%
CCN(CC)CCCNc1cc2n(c(=O)n1)CCc1cc(OC)c(OC)cc1-2	5%
CC(=O)Oc1c(S(=O)(=O)c2ccccc2)c(C)nn1C(C)(C)C	-14%
CCNC(=O)c1c(C)nc2ccccn12	3%
CCc1ccc(C(=O)OCC(=O)N(CC)c2c(N)n(Cc3ccccc3)c(=O)[nH]c2=O)cc1	6%
Cc1cccc(C)c1NC(=O)NC1(C(=O)N2CCN3CCCC3C2)CCCCC1 (configuration not stated)	-11%
COC1C=CC(CNC(=O)c2cc3c(=O)n4cccc(C)c4nc3n2C)(OC)O1 (configuration not stated)	-10%
CC(=O)c1ccc(NC(=O)Cn2c(=O)oc3cc(S(=O)(=O)N4CCCCC4)ccc32)cc1	4%
COc1cc(S(=O)(=O)NCc2ccc3c(c2)OCO3)ccc1Cl	-4%
CC(C)(C)n1ncc2c(=O)n(CC(=O)Nc3ccc4c(c3)OCO4)cnc21	-16%
Cn1cnnc1SCC(=O)NCCc1ccccc1	-17%
Cc1ccc(-n2ncc(C(=O)NCc3ccco3)c2C2CCN(C(=O)OC(C)(C)C)CC2)c(C)c1	13%
CC(C)CC(=O)Nc1ccc(C(=O)Cn2nc(C(=O)O)c3ccccc3c2=O)cc1	-3%
CCCCC[C@H](O)/C=C/[C@H]1C=CC(=O)[C@@H]1CCCCCCC(=O)O	-21%

Next part.
structure	VDR inh
C/C=C(/C)C(=O)O[C@@H]1Cc2c(ccc3ccc(=O)oc23)OC1(C)C	-7%
Cn1c(N)c(C(=O)COC(=O)CSc2ccccc2)c(=O)n(C)c1=O	-1%
COc1ccc(-c2cc(C)no2)cc1S(=O)(=O)N1CCOc2ccc(Cl)cc21	1%&10%
N#Cc1ccc(NCCNCC(=O)N2N=CCC2C#N)nc1 (configuration not stated)	-2%
COc1cc(O)c(C(CCN2CCCC(C)C2)c2ccc(N(C)C)cc2)c(OC)c1 (configuration not stated)	-11%&11%
Cc1ccc(-n2ncc(C#N)c2/N=C/N2CCCCCC2)cc1	-15%
Cc1noc(C)c1COc1ccc(C(=O)OC(C)C(=O)Nc2ccc(N3CCOCC3)cc2)cc1 (configuration not stated)	7%
COc1cc(-c2nc(-c3cccc(C(F)(F)F)c3)no2)cc(OC)c1OC	-11%
CCOc1ccc(CCNC(=O)c2cccc(NC3=NC4CS(=O)(=O)CC4S3)c2)cc1 (configuration not stated)	5%
COc1ccc(CN(C)C(=O)Cn2ccc(NC(=O)OCc3ccccc3)nc2=O)cc1OC	3%
CC12CCC(C(S(=O)(=O)Nc3ccccc3)C1=O)C2(C)C (configuration not stated)	3%
Nc1nonc1-n1nnc(C(=O)N/N=C/c2ccccc2)c1CN1CCc2ccccc21	34%[activator]
O=C(OC1CCOC1=O)c1cccc(S(=O)(=O)N2CCc3ccccc3C2)c1 (configuration not stated)	-19%
N#CCCN(C(=O)COC(=O)CCC(=O)c1ccc(F)cc1)c1ccccc1	-16%
Cc1ccc(-c2nnn(CC(=O)N(CC(=O)NC3CCCC3)c3cnc4ccccc4c3)n2)o1	9%
COC(=O)C(C(=O)OC)C(Cc1cc(F)cc(F)c1F)NC=O (configuration not stated)	-8%
CCN1CCN(c2nc(Nc3cccc(C)c3)nc(N)c2[N+](=O)[O-])CC1	4%
C/C(=C(\C#N)C(=O)NCCCN1CCOCC1)N(C)C	7%
COc1ccc(NC(=O)c2cn3c(nc4ccccc43)c(C#N)c2C)cc1	1%
O=C(Cn1c(-c2cccs2)cc2cc(Cl)ccc21)N1CCN(c2ccccc2F)CC1	1%
COCCSc1nnc(NC(=O)C(C)(C)C)s1	9%
CCn1ncc(S(=O)(=O)N2CCN(c3cccc(OC)c3)CC2)c1C	-17%
CCOC(=O)Cn1cnc2scc(-c3ccccc3)c2c1=O	6%
CCOc1ccc(N=C2SC(C(=O)Nc3ccccc3C#N)C(N)=C2C(=O)Nc2ccc(Cl)cc2)cc1 (configuration not stated)	13%
COc1ccc(CCN=CC2=C(O)CC(C)(C)CC2=O)cc1	-23%
O=C(CS(=O)(=O)c1nc(-c2ccc(Cl)cc2)cn1-c1ccccc1)Nc1cccc(Cl)c1	-6%
Cc1ccc(C(=O)NNC(=O)c2ccc(S(=O)(=O)N(C)c3ccccc3)cc2)cc1	7%
CC1CN(CC(=O)N2CCc3[nH]c4ccccc4c3C2)CC(C)O1 (configuration not stated)	-10%
Cc1cc(NC(=O)CSc2nc3ccsc3c(=O)n2CCCC(=O)NCCc2ccccc2)no1	-13%
COc1ccc(C)cc1NC(=O)CCn1nc(C)cc1C	14%
CN(C(=O)c1cc2c(=O)n3ccccc3nc2s1)C1CCCCC1	13%
CNCc1c(OCc2ccccc2)ccc2ccccc12	1%
O=C(Oc1ccc(-c2nnco2)cc1)N(c1ccccc1)c1ccccc1	-6%
Cc1ccc(-c2cc(NC(=O)CCl)n(-c3ccccc3)n2)cc1	?
CC(=O)N1c2ccccc2Oc2cc3ccccc3cc21	-9%
COCCCN(C(=S)Nc1cc(Cl)cc(Cl)c1)C(C)c1ccccn1 (configuration not stated)	?
Cc1nc(-c2ccccc2)cc(=O)[nH]1	-6%
Cc1cccc(NCCNc2cccc(C)c2)c1	1%
CC(OC(=O)c1c(F)cccc1F)C(=O)NCCC1=CCCCC1 (configuration not stated)	-1%
CCOC(=O)N1CCN(C(=O)C2CCN(C(=O)c3ccccc3C)CC2)CC1	22µM*
Cc1ccc(S(=O)(=O)C(CNS(=O)(=O)c2ccc(F)c(C(F)(F)F)c2)c2ccco2)cc1 (configuration not stated)	-1%
COc1ccc(S(=O)(=O)N2CCOCC2)cc1NC(=O)COc1ccc(C)cc1	-13%
CCc1ccc(OCC(=O)Nc2ccc3c(c2)c2ccccc2n3CC)c(Br)c1	3%
Nc1c(Cl)cc2c(c1Br)Cc1ccccc1-2	13%
Cc1c(C(=O)N2CCCC2)oc2c1-c1nn(CC(=O)NCc3cccc(F)c3)cc1CC2	10%
CS(=O)(=O)c1cccc(C(=O)Oc2ccccc2)c1	-11%
CN(C(=O)c1cccc(NC(=O)Cc2ccc(NC(=O)C3CCN(C(=O)C4CC4)CC3)cc2)c1)C1CCC1	-7%
COC(=O)[C@H](CCSC)NC(=O)Cn1ccc(N)nc1=O	-16%
CCOc1ccccc1NC(=O)Cn1nnc(C(=O)Nc2ccc(C)c(C)c2)c1N	-13%
CCN1CCN(C(=O)NC2CCCCC2)CC1	-4%
CC(=O)NS(=O)(=O)c1ccc(NC(=O)c2ccc3c(c2)C(=O)N(CCC(C)C)C3=O)cc1	-24%
O=C(CCc1nc2ccccc2s1)NC1CCOC1=O (configuration not stated)	-16%
Cc1cc(=O)c(C(=O)c2ccccc2)c(C)o1	10%
Cc1c(Br)cc(C(=O)N2CCCC2)c(C)c1C	-13%
COc1ccc(-c2nc(C)ncc2N=Nc2ccccc2)cc1	-10%
CN[C@@H](CC(C)C)C(=O)N[C@@H]1C(=O)N[C@H](CC(N)=O)C(=O)N[C@@H]2C(=O)N[C@H]3C(=O)N[C@H](C(=O)N[C@H](C(=O)O)c4cc(O)cc(O)c4-c4cc3ccc4O)[C@H](O)c3ccc(c(Cl)c3)Oc3cc2cc(c3O[C@H]2O[C@@H](CO)[C@@H](O)[C@@H](O)[C@@H]2O[C@@H]2C[C@](C)(N)[C@H](O)[C@H](C)O2)Oc2ccc(cc2Cl)[C@@H]1O	-2%

Exported with the structure last: 7 of the compounds above
| VDR inh | SMILES |
| --- | --- |
| -13% | CCOc1ccccc1NC(=O)Cn1nnc(C(=O)Nc2ccc(C)c(C)c2)c1N |
| -4% | CCN1CCN(C(=O)NC2CCCCC2)CC1 |
| -13% | Cc1c(Br)cc(C(=O)N2CCCC2)c(C)c1C |
| -2% | CN[C@@H](CC(C)C)C(=O)N[C@@H]1C(=O)N[C@H](CC(N)=O)C(=O)N[C@@H]2C(=O)N[C@H]3C(=O)N[C@H](C(=O)N[C@H](C(=O)O)c4cc(O)cc(O)c4-c4cc3ccc4O)[C@H](O)c3ccc(c(Cl)c3)Oc3cc2cc(c3O[C@H]2O[C@@H](CO)[C@@H](O)[C@@H](O)[C@@H]2O[C@@H]2C[C@](C)(N)[C@H](O)[C@H](C)O2)Oc2ccc(cc2Cl)[C@@H]1O |
| 10% | Cc1cc(=O)c(C(=O)c2ccccc2)c(C)o1 |
| -10% | COc1ccc(-c2nc(C)ncc2N=Nc2ccccc2)cc1 |
| -16% | O=C(CCc1nc2ccccc2s1)NC1CCOC1=O (configuration not stated) |

Next entries.
structure	VDR inh
Cc1csc(NC(=O)/C=C/c2ccc(C)o2)n1	-11%
Cc1ccc(C(=O)Nc2ccc(N3CCN(C(=O)c4ccco4)CC3)cc2)cc1	7%
NC(=O)Cn1nc([N+](=O)[O-])nc1Oc1ccccc1F	5%
O=S(=O)(NC1CC1)c1ccc(Cl)cc1	10%
CCN(CC)C(=O)Cn1c(=O)n(-c2ccccc2)c(=O)c2sccc21	4%
CCN(CCn1cccn1)C(=O)c1cccc(OC2CCN(S(C)(=O)=O)CC2)c1	0%
Cc1ccc(C)c(/C=N/Nc2nc3ccccc3c(=O)n2O)c1	-20%
